Source: PubChem BioAssay (National Center for Advancing Translational Sciences (NCATS))
PMP22 txn prim = Cell-based coincidence reporter assay to measure PMP22 gene transcription in S16 Pmp22-F2sN cells - Primary screen. S16 Pmp22-F2sN Schwann cells (luciferase reporters placed in the Pmp22 gene), FLuc/NLuc coincidence luminescence, 24 h. Potency, µM (titrated, usually from 57.5 µM), without a hit: at the highest dose activity change, negative = inhibition, actives largely listed as inhibitors. 43,000 tested, 2% active. AID 1508649, 2021; active = clear falling dose curves in both reporters; inconclusive = both reporters move, but less clearly or upward; inactive = either reporter flat; the % is the NLuc reporter signal; note: % is set by controls: 0 for no effect and ±100 for the full control effect; some results filed as inactive show a strong effect at the top dose
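S16 Schwann cells carrying FLuc/NLuc coincidence reporter in the Pmp22 3' UTR treated with compound 24 h at 37C; FLuc then NLuc luminescence read sequentially by dual-luciferase reagents.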
HTT prom inh = Primary qHTS for Identification of Small Molecule Inhibitors of Huntingtin Promoter Activity; HEK293 HTT promoter firefly luciferase reporter (activity 0% = vehicle and -100% = no light), 24 h; Potency, µM (doses to about 57.5 µM), for the others: at the highest dose activity change, negative = inhibition, actives largely listed as inhibitors; AID 1508623, 2021; 48,000 tested, 0.93% active; active = well fitted inhibition curve with a large enough effect; inconclusive = small, poorly fitted or top-dose-only effect; inactive = no such curve, though single readings can be large or run the other way; note: nearly all actives have a fitted effect of over 50% in size
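Firefly luciferase readout (Dual-Glo, 10 min RT) after 24 h, 37 °C compound exposure (final up to 57.5 uM) of HEK293 reporter cells cultured 24 h beforehand; PTC124 at 50 uM final as control inhibitor; activity scaled vehicle 0%, zero RLU -100%.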
Numbers without * were called inactive; u = inconclusive; x = no result given; [ ] = remark or other dose. Potency is the fitted concentration of half-maximal effect.

molecule	PMP22 txn prim	HTT prom inh
COc1ccc2c(CNC3CCC(C)CC3)c(C(=O)O)n(Cc3ccccc3)c2c1 (stereo unspecified)	12%	-12%
Cc1nn2c(C)c(C(=O)NCC(C)c3ccccc3)cnc2c1-c1ccccc1 (stereo unspecified)	-5%	-10%
CCn1ccc2cc(S(=O)(=O)N3CCC(C(=O)NCCOC)CC3)ccc21	5%	-3%
Cc1c(NC(=O)c2ccc(OC(C)C)cc2)cccc1-c1nc2ncccc2o1	-14%	2%
CCOc1ccc(CCNC(=O)CCc2cn(Cc3ccccc3F)c3ccccc23)cc1OCC	u	u
O=C(Nc1nnc2n1CCS2)c1cc(C(F)(F)F)cc(C(F)(F)F)c1	8.9µM*	-2%
CCOC(=O)C(C)Sc1nc(-c2ccccc2)ccc1C#N (stereo unspecified)	-20%	-12%
COc1ccc(-c2nc3ccc(C(=O)NCc4ccc(C)cc4)cc3nc2-c2ccc(OC)cc2)cc1	9%	-3%
CC1CCN(S(=O)(=O)c2ccc3c(ccn3CC(=O)NCc3ccc(N(C)C)cc3)c2)CC1	-26%	u
Cc1ccc(-n2nc(C(=O)N3CCCCC3C)c(=O)n(C)c2=O)cc1 (stereo unspecified)	-5%	4%
O=C(NCCC1=CCCCC1)c1ccc2c(c1)N(Cc1ccccc1F)C(=O)c1ccccc1S2=O (stereo unspecified)	u	-15%
CCc1cccc(NC(=O)C2CCN(C(=O)c3cnn(-c4ccccc4)c3-n3cccc3)CC2)c1	u	u
COCCCNC(=O)c1cc(-c2ccc(OC)cc2)nc2n[nH]c(-c3ccc(Cl)cc3)c12	u	-26%
CCn1c(C)c(C)c2cc(C(=O)NCc3ccc(N(C)C)cc3)ccc21	-34%	-7%
O=C(c1ccc(Nc2nccc(-c3cc4ccccc4s3)n2)cc1)N1CCC(N2CCCC2)CC1	x	-22%
Cc1ccc(-n2nc(C)c3c(C(=O)NCc4ccc(F)cc4)cc(C)nc32)cc1	11%	-18%
O=C(Nc1ccccc1OCc1cc(=O)n2ccccc2n1)Nc1ccccc1C(F)(F)F	-12%	10%
COc1cc(C(=O)Nc2ccc(OCc3cc(=O)n4ccc(C)cc4n3)cc2)cc(OC)c1OC	-1%	4%
Cc1nn(-c2ccccc2)c2c1N(CCCC(=O)NCc1ccc(Cl)cc1)C(=O)CS2	-25%	-1%
CC(C)CC(=O)Nc1nnc(S(=O)(=O)N2CCc3ccccc32)s1	7%	u

Remaining list, next part
molecule	PMP22 txn prim	HTT prom inh
CCc1ccccc1N(C)C(=O)c1cc2c(Cl)nc3ccc(C)cc3c2s1	u	-5%
CCOc1ccccc1NC(=O)Cn1c(=O)oc2ccccc21	-20%	-3%
Cc1ccc(C(C)C)c(OCC(=O)Nc2cc(-c3nc4ccccc4[nH]3)ccc2C)c1	u	u
Cc1cc(C)n(-c2nc3cc(Cl)ccc3nc2N2CCN(c3ccccc3F)CC2)n1	6%	-28%
Cc1ccccc1CNC(=O)CN(c1cccc(C)c1C)S(C)(=O)=O	-15%	-18%
COc1ccc(OC)c(C(=O)CC2(O)C(=O)N(Cc3ccccc3C)c3ccccc32)c1 (stereo unspecified)	-25%	u
Cc1cccc(N2CCN(C(=O)C3CCN(S(=O)(=O)c4c(C)noc4/C=C/c4ccccc4F)CC3)CC2C)c1 (stereo unspecified)	-25%	-20%
CCOc1ccc(CCNC(=O)c2cnc3sc(N4CCCC4)nn3c2=O)cc1	u	u
CCCN1C(=O)C(Cc2nc3ccccc3c(=O)n2-c2cccc(C)c2)c2ccccc21 (stereo unspecified)	-24%	-18%
Cc1cccc(-n2ncc(C(=O)NCc3ccco3)c2C2CCN(C(=O)OC(C)(C)C)CC2)c1	-22%	-19%
O=C(CSc1nc(-c2ccccc2)cn1-c1ccccc1)Nc1ccccc1	-35%	u
CCN1CCN(c2ncnc3c2cnn3-c2ccc(F)cc2)CC1	6%	57%[activator]
COc1ccc(-c2nc3c(c(SCC(=O)N4CCCCC4)n2)Cc2cc(C)ccc2O3)cc1	-6%	4%
Cc1ccc2c(CC(=O)N(Cc3ccc(N(C)C)cc3)Cc3ccco3)coc2c1C	u	-29%
CCOc1cc(CNC(=O)c2ccc3c(c2)N(C)C(=O)C2CCCCN32)cc(OCC)c1OCC (stereo unspecified)	u	0%
Cc1ccc(C2c3c(-c4ccccc4O)n[nH]c3C(=O)N2CCCO)cc1 (stereo unspecified)	-16%	-30%
CC(C)c1ccc(NC(=O)C2CCCN(S(=O)(=O)c3cccc4nonc34)C2)cc1 (stereo unspecified)	u	-12%
CC1=C(c2ccc(Cl)cc2)S(=O)(=O)NC1=NCc1ccc(C)cc1	2%	-12%
CC(=O)Nc1ccc(NC(=O)CCNS(=O)(=O)c2cccc3nsnc23)cc1	-4%	-7%
CC(=O)c1ccc(NC(=O)CC(c2cccs2)N2Cc3ccccc3C2=O)cc1 (stereo unspecified)	u	15%

Other structures follow:
Under each structure – PMP22 txn prim, HTT prom inh
Cc1c(Cl)ccc2sc(N3CCN(C(=O)CCS(=O)(=O)c4ccc(F)cc4)CC3)nc12
    12µM*, u
COC(=O)c1cc(C)nc2c1c(=O)nc(SCc1cccc(C(F)(F)F)c1)n2C1CC1
    u, -15%
Cc1ccccc1NC(=O)c1ccc2[nH]c(C)c(C)c2c1
    u, 73%[activator]
CCCN(CCC)C(=O)Cn1c(=O)n(CCCCCC(=O)NCc2ccc3c(c2)OCO3)c(=O)c2sccc21
    -6%, 1%
COc1ccc(C(=O)NNc2ncnc3c2cnn3-c2cccc(Cl)c2)cc1OC
    u, u
Cc1ccc(NC(=O)N2CCN(c3cc(-c4noc(C)n4)ccc3C)CC2)c(F)c1
    u, u
O=C(Cc1csc2ccccc12)NCc1ccc(F)cc1
    5%, 54%[activator]
CC(=O)c1cccc(Nc2ccc3cc(S(=O)(=O)N4CCC(C)CC4)ccc3n2)c1
    -30%, -12%
CCOC(=O)c1cc(-c2ccc(OC)cc2)nn1Cc1ccccc1
    -8%, 60%[activator]
COc1ccc(OC)c(NC(=O)c2c(N3CCCC3=O)c3cc(OC)ccc3n2C)c1
    u, -7%
COc1ccc(OC)c(-c2noc(CSc3nnc(-c4ccccc4)n3-c3ccccc3)n2)c1
    u, -14%
Cc1cc(C)c(/C=C/c2onc(C)c2S(=O)(=O)N2CCC(C(=O)NCCc3ccccc3)CC2)c(C)c1
    u, -23%
Cc1ccc(NC(=O)C2CCCN2S(=O)(=O)c2ccc3c(c2)CCCC(=O)N3)cc1C (stereo unspecified)
    -12%, u
CCN(Cc1ccccc1)C(=O)CN1C(=O)COc2ccc(S(=O)(=O)N(CC)CC)cc21
    -18%, -14%
CN(C1CCCCC1)S(=O)(=O)c1ccc2c(c1)c(=O)c(C(=O)N1CCN(c3ccc(F)cc3)CC1)cn2C
    -1%, -12%

Structural class, those above with a furan ring, fused or not (2)
Under each structure – PMP22 txn prim, HTT prom inh
Cc1cccc(-n2ncc(C(=O)NCc3ccco3)c2C2CCN(C(=O)OC(C)(C)C)CC2)c1
    -22%, -19%
Cc1ccc2c(CC(=O)N(Cc3ccc(N(C)C)cc3)Cc3ccco3)coc2c1C
    u, -29%

(next part)
Under each structure – PMP22 txn prim, HTT prom inh
CC(=O)c1cccc(NC(=O)c2nc(-c3ccccc3)n(-c3ccccc3)n2)c1
    u, -9%
O=C(CCC1N=C2c3ccccc3N=C(SCc3cccc(Cl)c3)N2C1=O)N1CCN(c2ccccc2)CC1 (stereo unspecified)
    u, -14%
Cc1cccc(Cn2c(=O)n(CC3CCC(C(=O)N4CCOCC4)CC3)c(=O)c3sccc32)c1 (stereo unspecified)
    u, -27%
COc1ccc(OC)c(CCNC(=O)CCCn2c(=O)c3cccn3c3cccnc32)c1
    -48%, 0%
Cn1cc(C(=O)O)c(=O)c2cc(S(=O)(=O)N3CCCCC3)ccc21
    -39%, -34%
COC(=O)c1c(SCC(=O)Nc2ccccc2C(F)(F)F)[nH]c2ccc(Cl)cc2c1=O
    -10%, -10%
CCC(C)Nc1oc(-c2ccc(COc3ccc(Cl)cc3)o2)nc1C#N (stereo unspecified)
    -43%, u
O=C(CSc1nnc2[nH]c(=O)cc(-c3ccccc3)n12)Nc1cc(C(F)(F)F)ccc1Cl
    u, 36%[activator]
Cc1cc(C)cc(NC(=O)CSc2nncn3c2cc2occc23)c1
    u, -21%
CCCCCCCCCCCCCCCC[N+](C)(C)CC
    x, u
CCOC(=O)c1ccc2c(c1)sc1nc(-c3ccc(OCC)cc3)cn12
    7%, -10%
COc1ccc(S(=O)(=O)Nc2ccc(O)c(Sc3nc4ccccc4s3)c2)cc1
    u, -7%
CCC(NC(=O)Nc1cc(OC)ccc1OC)c1c(-n2cccc2)sc2c1CCN(CC)C2 (stereo unspecified)
    -43%, u
O=C(Nc1ccc(Br)cc1)c1ccc(F)c(S(=O)(=O)NC2CCCCCC2)c1
    u, u
COc1cccc(C(=O)Nc2ccc3nc(N4CCC(C)CC4)cc(C)c3c2)c1
    u, u

Some of these compounds in order of molecular weight, rising.
Under each structure – PMP22 txn prim, HTT prom inh
Cc1cc(C)cc(NC(=O)CSc2nncn3c2cc2occc23)c1
    u, -21%
CCOC(=O)c1ccc2c(c1)sc1nc(-c3ccc(OCC)cc3)cn12
    7%, -10%
COc1cccc(C(=O)Nc2ccc3nc(N4CCC(C)CC4)cc(C)c3c2)c1
    u, u
COc1ccc(OC)c(CCNC(=O)CCCn2c(=O)c3cccn3c3cccnc32)c1
    -48%, 0%
COc1ccc(S(=O)(=O)Nc2ccc(O)c(Sc3nc4ccccc4s3)c2)cc1
    u, -7%
O=C(Nc1ccc(Br)cc1)c1ccc(F)c(S(=O)(=O)NC2CCCCCC2)c1
    u, u

New compounds follow
Under each structure – PMP22 txn prim, HTT prom inh
Cc1cccc(CC(=O)Nc2cccc(-c3nc4cccnc4s3)c2)c1
    -44%, 20%
O=C(c1ccccc1Cl)N(Cc1ccco1)c1ccccn1
    5%, -7%
O=C(Nc1nnc(S(=O)(=O)N2CCc3ccccc32)s1)c1cccc(Cl)c1
    u, u
O=C(CSc1nc2c([nH]c3ccccc32)c(=O)n1-c1cccc(Cl)c1)N1CCc2ccccc21
    -20%, -16%
Cc1ccccc1NC(=O)CSc1nc(-c2ccccc2)cn1-c1ccccc1F
    -24%, u
COc1cccc(Cn2c(SCC(=O)N(C)c3ccccc3)nc3ccccc32)c1
    -8%, -2%
Cc1ccc(C(=O)Nc2ccccc2)cc1S(=O)(=O)Nc1ccccc1
    0%, -18%
Cc1ccc(NC(=O)CSc2nc3ccccc3c3nc(CCc4c(C)n[nH]c4C)nn23)c(C)c1
    -8%, -19%
Cc1ccc(NC(=O)c2sc(-n3nc(C)c(Cc4ccc5c(c4)OCO5)c3C)nc2C)cc1C
    6%, -9%
O=C(COc1ccc(Cl)cc1)N(Cc1ccco1)c1ccccn1
    6%, -9%
COc1ccc(-c2nc3ccccc3o2)cc1NC(=O)C(C)(C)Oc1ccc(Br)cc1
    -9%, -16%
CCOc1ccccc1NC(=O)COC(=O)c1cn(CC)c2nc(C)ccc2c1=O
    u, -27%
CCc1ccc(OCC(=O)Nc2cc(-c3ccc(C)cc3)no2)cc1
    -5%, 66%[activator]
CC(=O)c1ccc(N2CCN(S(=O)(=O)c3ccc(-c4cc(C(F)(F)F)on4)s3)CC2)cc1
    -22%, -4%
CCC(C)n1c(=N)c(S(=O)(=O)c2ccc(C)cc2)cc2c(=O)n3cc(C)ccc3nc21 (stereo unspecified)
    2%, 1%

Next records.
Under each structure – PMP22 txn prim, HTT prom inh
CCc1ccc(Sc2cc(C(=O)NCc3ccccc3OC)c3ccccc3n2)cc1
    u, -28%
COc1ccc(-c2nc3ccc(C(=O)NCc4ccccc4)cc3nc2-c2ccc(OC)cc2)cc1
    40%, 2%
CCOc1ccc(NC(=O)Cn2cc(C(=O)c3ccc(CC)cc3)c(=O)c3cc(C)ccc32)cc1
    u, -15%
Cc1ccc(NC(=O)CN2C(=O)C3(SCC(=O)N3c3cccc(Cl)c3)c3ccccc32)cc1C (stereo unspecified)
    -9%, u
CCOC(=O)CNC(=O)c1cc2c(=O)oc3ccccc3c2s1
    -25%, 0%
COc1ccccc1CNC(=O)Cn1c(=O)nc(-c2ccccc2F)c2cc(Cl)ccc21
    u, -4%
CCCNC(=O)C1CCC(Cn2c(=O)c3sccc3n(CC(=O)NCc3cccc(OC)c3OC)c2=O)CC1 (stereo unspecified)
    0%, -19%
Cc1nn(C)c2c1c(C(F)(F)F)cc(=O)n2CC(=O)NCc1ccccc1Cl
    5%, 0%
COc1ccc(NC(=O)C2CCCN(S(=O)(=O)c3c(C)[nH]c(=O)[nH]c3=O)C2)cc1OC (stereo unspecified)
    -2%, -16%
CN(CC(=O)Nc1cccc(F)c1)S(=O)(=O)c1ccc2c(c1)n(C)c(=O)c(=O)n2C
    -28%, 17%
COc1cccc(N2CC(NC(=O)c3ccc(S(=O)(=O)N4CCOCC4)cc3)CC2=O)c1 (stereo unspecified)
    -14%, -28%
